Six1-Eya2 inh = Six1/Eya2 interaction inhibition; AlphaScreen GST-Six1/His-Eya2 binding, biochemical; active compounds read low; control for the full effect not named in the record; AID 651725; actives 0.56% (n = 360,000); activity change, % (no concentration beside the values); in the data active = activity change below about -65%; inconclusive = about -30% to -65%; inactive = above about -30%; further: on the % scale 0 is the no-effect control and ±100 the full control effect
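AlphaScreen with GST-Six1 and His-Eya2 (5X mix: 250 nM and 500 nM), glutathione donor and nickel acceptor beads; buffer 50 mM Tris pH 8.0, 300 mM NaCl, 1 mM TCEP; 1 h at 37 C in the dark.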
D2 ag = activates the human D2 dopamine receptor | P14416 | DiscoveRx PathHunter D2 beta-arrestin, luminescence, 90 min; 100% = 57 uM dopamine signal | activation, % (concentration not given with the values) | actives 0.084% (n = 360,000); in the data active = activation above about 40%; inconclusive = about 15% to 40%; inactive = below about 15%; further: compound concentration not given in the record; the text of the record calls up to 30% inactive
Target sequence (P14416 whole entry, looked up): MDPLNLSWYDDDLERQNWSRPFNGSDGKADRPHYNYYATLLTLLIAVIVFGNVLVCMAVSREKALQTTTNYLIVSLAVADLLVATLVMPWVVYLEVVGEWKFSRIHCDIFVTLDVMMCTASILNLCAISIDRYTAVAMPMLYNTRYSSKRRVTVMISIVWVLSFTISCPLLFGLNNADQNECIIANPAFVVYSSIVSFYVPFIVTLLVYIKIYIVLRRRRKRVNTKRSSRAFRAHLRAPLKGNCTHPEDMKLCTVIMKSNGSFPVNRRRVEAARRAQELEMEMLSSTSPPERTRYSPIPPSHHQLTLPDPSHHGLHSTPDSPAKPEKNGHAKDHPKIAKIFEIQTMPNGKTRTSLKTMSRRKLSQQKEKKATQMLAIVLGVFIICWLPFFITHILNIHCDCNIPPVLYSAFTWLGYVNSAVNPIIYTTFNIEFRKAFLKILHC
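Agonist mode: compounds alone added to overnight-plated D2 PathHunter cells for 90 min at 37 C, with 57 uM final dopamine (EC100) defining full response. Beta-arrestin recruitment detected by chemiluminescent reagent, read after 1 h at ambient temperature.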
CtBP-E1A inh = CtBP/E1A binding inhibition; AlphaScreen GST-E1A/His-CtBP binding, 1536-well; active compounds read low; control for the full effect not named in the record; AID 651724; activity change, % (no concentration beside the values); actives 0.49% (n = 340,000); in the data active means activity change below about -65%; inconclusive means about -30% to -65%; inactive means above about -30%; further: on the % scale 0 is the no-effect control and ±100 the full control effect
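Protein mix (5X: 125 nM each GST-E1A, His-CtBP) was incubated with pinned compound 2 h at 37 deg C in dark, in 50 mM Tris pH 8.0 buffer with 300 mM NaCl. Glutathione donor and nickel acceptor beads followed; AlphaScreen signal read after 1 h.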
gsp antagonist = antagonists of gsp mutant (McCune-Albright syndrome); gsp-mutant cells, cAMP HTRF, 30 min; control for the full effect not named in the record; actives 0.4% (n = 340,000); AID 624288; Potency, µM (top dose mostly 76.9 µM), inactives show at the top dose activity change, negative = inhibition, hits mostly inhibitors; active = falling curve of any shape with a large fitted effect; inconclusive = falling curve, mostly with a smaller effect; inactive = flat or rising curve; cell line not stated here;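 further: intracellular cAMP measured with PDE inhibitor Ro 20-1724 present during compound exposure; potency means the concentration at half of the fitted maximal effect; on the % scale 0 is the no-effect control and ±100 the full control effect; nearly all actives have a fitted effect of over 65% in size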
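G418-selected cells were plated in DMEM/10% FBS for 16-24 h at 37C, then treated with compounds plus the PDE inhibitor […] (300 uM solution added) for 30 min at 37C. Intracellular cAMP was measured by HTRF after 30 min lysis at room temperature.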
D2 PAM = potentiates the human D2 dopamine receptor allosterically | potentiation, % (no concentration beside the values) | AID 624464 | actives 0.23% (n = 360,000) | DiscoveRx D2 beta-arrestin cells, luminescence, 90 min; 100% = 57 uM dopamine signal; active = potentiation of 50% or more; inconclusive = 30% to 50%; inactive = 30% or less;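 further: compound concentration not given in the record; tested on top of an EC20 dose of dopamine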
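D2 cells co-treated with compound plus 50 nM dopamine (EC20) for 90 min at 37 deg C to detect potentiation. Beta-arrestin recruitment was read as enzyme-fragment luminescence after 1 h at ambient temperature. Full response was set by 57 uM dopamine.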
gsp ag = agonists of gsp mutant (McCune-Albright syndrome); actives 0.13% (n = 340,000); Potency, µM (doses to about 76.9 µM), for the others: at the highest dose activation (cAMP increase), actives largely listed as activators; gsp mutant cells, cAMP HTRF, 30 min; control for the full effect not named in the record; active = well fitted activation curve with a large enough effect; inconclusive = small, poorly fitted or top-dose-only effect, or another doubt; inactive = no such curve, though single readings can be large or run the other way; cell line not stated here;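 further: phosphodiesterase inhibitor Ro 20-1724 added with compounds to block cAMP breakdown; potency means the concentration at half of the fitted maximal effect; nearly all actives have a fitted effect of over 60% in size; about a fifth of the inactives were tested at one dose only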
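Cells in DMEM/10% FBS with G418 were pretreated with compounds in DMSO plus […] (300 uM stock) for 30 min at 37C. cAMP was measured by HTRF (cAMP-d2 plus anti-cAMP antibody-K) after 30 min at room temperature.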
The depositor's hits bear a star; ? = inconclusive; . = no result given; [ ] = remark or other dose.

item	Six1-Eya2 inh	D2 ag	CtBP-E1A inh	gsp antagonist	D2 PAM	gsp ag	SMILES
1	-2	-3.4	0	-12%	4	?	CCCN(CCC)Cc1c(C(=O)N/N=C/c2ccncc2)nnn1-c1nonc1N
2	-2	-1.4	-20	-3%	-11	18%	COC(=O)C(CCSC)NC(=O)c1cccc([N+](=O)[O-])c1 (centres undefined)
3	0	1.4	.	2%	-4	-34%[inhibitor]	CCNC(=S)N1CCN(CCNC2=CC(=O)CC(C)(C)C2)CC1
4	8	4.7	4	0%	4	3%	CC(C)c1nnc(NC(=O)CS(=O)(=O)Cc2ccccc2)s1
5	24	1.3	0	5%	-11	2%[15.4 µM]	CCN(CC(=O)Nc1cccc(C(C)=O)c1)S(=O)(=O)c1ccc(C)cc1
6	-2	-0.5	4	-3%	-12	-20%	COC(=O)c1ccc2c(=O)n(CC3CCCO3)c(=S)[nH]c2c1 (centres undefined)
7	-16	2.1	-16	14%	-1	-20%	O=C(COC(=O)c1ccccn1)NNC(=O)c1ccc(Br)cc1
8	6	-2.0	.	7%	-2	?	CN1CCN(C(=O)CCc2nnc3ccc(N4CCC5(CC4)OCCO5)nn23)CC1
9	2	-2.2	-9	5%	-5	-1%	O=C(O)CSc1nccn1-c1cccc(Cl)c1
10	-1	-2.8	5	.	-11	.	CCNC(=O)C1(C)CCCN1C(=O)c1ccc(-c2ccccc2)cc1 (centres undefined)
11	3	-4.8	-5	-5%	-13	-2%	COCCN1CC(CNC(=O)c2cc(COc3ccccc3SC)on2)CC1=O (centres undefined)
12	4	-1.2	0	19%	-2	27%	Cc1ccc(S(=O)(=O)N2CCOCC2)cc1C(=O)Nc1ccc2c(c1)OCCO2
13	0	3.0	25	.	3	2%	CCN(CC)C(=O)C1=C(C)N(CCCOC)C(=O)C(CC(=O)NCc2cccs2)C1 (centres undefined)
14	5	-2.5	9	16%	-7	?	CC1(C)OC(=O)C(=NNc2ccc(O)cc2)C(=O)O1
15	21	-0.2	.	8%	-3	-62%[inhibitor]	O=C(c1cccnc1)N1CCC(Oc2ccc(C(=O)N3CCCCO3)cc2)CC1
16	1	-3.2	1	-22%	-8	0%	CCC(CC)C1C(C#N)=C(N)SC(N)=C1C#N
17	0	3.6	8	-4%	-3	7%	COc1ccc(/C=C/C(=O)NCc2cn(C)nc2C)cc1COc1ccc(Cl)cc1Br
18	-4	1.9	-3	2%	-7	-7%	O=C(Cc1ccc(S(=O)(=O)N2CCOCC2)s1)NC1CCCCC1
19	2	-5.0	9	19%	-3	-23%	Cc1cc(C(F)(F)F)nc(SCC(=O)Nc2cc(C)on2)n1
20	-15	-1.8	-20	2%	-35	-19%	O=C(COc1ccc2ccccc2c1CN1CCOCC1)N1CCc2ccccc21
21	2	-5.6	.	4%	-11	20%	COc1ccc2c(c1)cc1c(=O)n(CC(=O)NCCCN3CCOCC3)nc(C)n12
22	-2	-2.6	0	3%	-2	24%	COC(=O)c1ccc(NC(=O)CNC(=O)c2sc3ccccc3c2Cl)cc1
23	0	0.5	2	-10%	-2	10%	COc1ccc(C(=O)c2cn[nH]c2-c2ccc(C)cc2O)cc1
24	-8	-0.4	0	-17%	2	-1%	ClC(Cl)c1nnc(-c2ccccc2)c(-c2c[nH]c3ccccc23)n1
25	1	-3.8	5	.	-8	.	Cc1ccc(C(c2nc3ccccc3[nH]2)n2c(-c3ccccc3)nc3ccccc32)cc1 (centres undefined)
26	7	-4.2	-2	-3%	-7	-49%[inhibitor]	CCOc1ccc(N(CC(=O)Nc2ccc(C)c(C)c2)S(=O)(=O)c2c(C)noc2C)cc1
27	-8	2.5	15	-28%	7	-5%	Cc1ccc(NC(=O)c2ccc3c(c2)OCCO3)cc1S(=O)(=O)Nc1cccc(Cl)c1
28	-2	1.0	0	1%	15	?	CC(=O)N(C)c1nnc(-c2cnccn2)s1
29	-21	-2.2	.	6%	-1	-26%	N#CCCN(CCC#N)S(=O)(=O)c1ccc(C(=O)Nc2nnc(C3=COCCO3)o2)cc1
30	29	-1.9	2	13%	9	12%	CCCCN(C(=S)Nc1ccccc1)C1CCS(=O)(=O)C1 (centres undefined)
31	-6	-3.6	-1	?	2	?	COC(=O)c1c(NC(=O)c2nc3ccccc3s2)sc2c1CCN(C(C)=O)C2
32	7	-2.6	11	1%	-3	18%	CN1OC(COC(=O)c2ccccc2)CC1c1ccccc1 (centres undefined)
33	4	0.3	-2	7%	1	0%[15.4 µM]	COc1ccc(CC(=O)NC(C)c2nnc(SCC(=O)Nc3ccccc3F)n2C)cc1 (centres undefined)
34	3	0.7	-2	-1%	21	3%	COc1ccc(C(c2c(NC(=O)c3ccco3)sc(C)c2C)N2CCOCC2)cc1 (centres undefined)
35	9	-7.8	0	-8%	-5	?	COc1cccc(CC(NC(C)=O)C(=O)NC2CCN(c3nnnn3-c3ccccc3)CC2)c1OC (centres undefined)
36	3	0.8	-5	11%	2	-21%	CCN(CC)N=Nc1[nH]nc2nc(C)cc(C)c12
37	5	0.6	.	-6%	-1	-8%[15.4 µM]	Cc1ccc(NC(=O)CN2C(=O)NC3(CCCc4ccccc43)C2=O)cc1S(=O)(=O)N1CCOCC1 (centres undefined)
38	-4	-2.4	3	9%	-1	-7%	COc1ccc(OC)c(S(=O)(=O)NCC(c2ccco2)S(=O)(=O)c2ccccc2)c1 (centres undefined)
39	-2	0.7	-9	-11%	-7	-7%	CCCCN(C)C(=O)CCCCn1c(=O)[nH]c2cc(OCC)c(OCC)cc2c1=O
40	1	42*	.	7%	14	6%	O=S(=O)(Nc1c(O)ccc2ccccc12)c1ccccc1
41	-12	-10	-16	4%	-14	-12%[15.4 µM]	N=C(N)SCP(=O)(c1ccccc1)c1ccccc1
42	-7	0.0	-2	-1%	0	-64%[inhibitor]	COc1ccc(N2CCN(C(=O)c3ccc4nc(N5CCCCC5)sc4c3)CC2)cc1
43	5	-1.2	2	2%	-9	-6%	CC(C)NC(=O)C1CC(=O)N(C(C)c2ccccc2)C1 (centres undefined)
44	-2	-3.5	0	-2%	2	1%[15.4 µM]	O=C(Nc1cccn(Cc2c(Cl)cccc2Cl)c1=O)C1CC1
45	-2	-1.2	1	0%	0	4%[15.4 µM]	O=C(Cc1ccc(F)cc1)Nc1cccc(-c2ccc3nncn3n2)c1
46	11	-1.1	1	5%	-10	?	COC(=O)/C(=C\c1c(OC)cc(OC)cc1OC)C(=O)c1ccc2c(c1)OCO2
47	1	-1.4	3	-2%	2	-5%	CCOc1ccc(-n2c(C)nc3cc(C(=O)NCCN4CCOCC4)ccc32)cc1
48	6	-6.0	11	10%	-6	12%	O=C(CCN1C(=O)c2ccncc2C1=O)Nc1cc(F)ccc1F
49	-8	1.6	1	-17%	-5	-12%[15.4 µM]	Cc1cccc(NS(=O)(=O)c2ccc(C(=O)N3CCCCCC3)cc2)c1C
50	-4	1.1	5	-17%	17	12%	CC(C)CNC(=S)NC(=O)c1ccc(F)cc1
51	-14	-7.5	0	-7%	-23	49%	COc1cc(/C=C(\NC(=O)c2ccccc2)C(=O)Nc2nccs2)ccc1OC(C)=O
52	3	-1.0	3	9%	-6	18%	CC(C)CNS(=O)(=O)c1cc(C(=O)N2CCOCC2)c(Cl)cc1Cl
53	0	0.8	0	2%	-2	28%	COc1ccc(CCN2CC(C(=O)Nc3cccc(C(C)=O)c3)CC2=O)cc1OC (centres undefined)
54	-3	-1.8	-6	8%	-33	11%	C/C(=C\c1ccccc1)CN1CCN(Cc2ccc(C)o2)C(CCO)C1 (centres undefined)
55	0	4.9	?	-15%	1	36%	CCc1ccc(C(=O)Cn2cnc3cc([N+](=O)[O-])ccc3c2=O)cc1
56	-5	-6.3	.	-6%	-20	7%	Cc1onc(C(=O)Nc2sc3c(c2C(N)=O)CCCC3)c1[N+](=O)[O-]
57	9	0.0	-1	9%	-10	-2%	COc1ccc(S(=O)(=O)n2nc(OC(=O)C3CCCCC3)cc2N)cc1
58	-10	0.8	-18	?	-9	.	O=c1c2ccccc2oc2cc(-c3ccc(CN4CCOCC4)cc3)ccc12
59	39	1.0	48	-1%	-3	-63%[inhibitor]	O=C(c1cccs1)c1ccccc1Cc1cccs1
60	-3	2.3	-2	13%	-5	-34%[inhibitor]	Cc1cccc(C)c1NC(=S)NCc1ccccc1

Five records picked at random from those above:
item	Six1-Eya2 inh	D2 ag	CtBP-E1A inh	gsp antagonist	D2 PAM	gsp ag	SMILES
53	0	0.8	0	2%	-2	28%	COc1ccc(CCN2CC(C(=O)Nc3cccc(C(C)=O)c3)CC2=O)cc1OC (centres undefined)
52	3	-1.0	3	9%	-6	18%	CC(C)CNS(=O)(=O)c1cc(C(=O)N2CCOCC2)c(Cl)cc1Cl
57	9	0.0	-1	9%	-10	-2%	COc1ccc(S(=O)(=O)n2nc(OC(=O)C3CCCCC3)cc2N)cc1
58	-10	0.8	-18	?	-9	.	O=c1c2ccccc2oc2cc(-c3ccc(CN4CCOCC4)cc3)ccc12
50	-4	1.1	5	-17%	17	12%	CC(C)CNC(=S)NC(=O)c1ccc(F)cc1

(next part)
item	Six1-Eya2 inh	D2 ag	CtBP-E1A inh	gsp antagonist	D2 PAM	gsp ag	SMILES
61	12	-3.3	5	-1%	-13	7%[15.4 µM]	O=C(O)/C=C/C(=O)Nc1ccc(-n2nccc2C(F)(F)F)cc1
62	1	-3.2	6	9%	2	2%	COc1ccccc1C(=O)N(Cc1ccc(C)o1)C1CCS(=O)(=O)C1 (centres undefined)
63	15	-3.4	0	3%	-13	6%	CCN(CC)S(=O)(=O)c1cccc(C(=O)N2CCCCC2)c1
64	8	-0.5	23	-40%	-14	?	CCOc1ccc(N(C(C)C(=O)N/N=C(\C)c2cccc(NC(=O)c3ccccc3)c2)S(C)(=O)=O)cc1 (centres undefined)
65	6	0.0	8	-6%	4	11%	Cc1ccc2c(CSc3nc4ccccc4c(=O)n3CCCO)cc(=O)oc2c1
66	-12	13	-26	-4%	10	-3%[15.4 µM]	O=C(c1ccc(-c2ccccc2Cl)o1)N1CCN(c2ccccc2O)CC1
